# Screening data (PubChem)
# NS1 function inh = inhibitors of influenza NS1 protein function. S. cerevisiae slowed by influenza A NS1, growth recovery by OD600. Potency, µM (highest dose often 46.1 µM), without a hit: top-dose activity, positive = more growth. 270,000 compounds, 0.4% hits. AID 2326; active means well fitted rising curve with a large enough effect; inconclusive means small, poorly fitted or top-dose-only effect; inactive means no such curve, though single readings can be large or run the other way; note: nearly all actives have a fitted effect of over 50% in size
#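 Compounds were scored for reversing the slow growth caused by influenza A NS1 in S. cerevisiae, measured by optical density at 600 nm. Assay medium contained 2% galactose at pH 6.0; NS1-free yeast of the same strain were the positive control.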
# SARS PLP yeast = blocks SARS-CoV papain-like protease in a yeast assay | S. cerevisiae expressing SARS-CoV PLpro, growth rescue; control for the full effect not named in the record | Potency, µM (titrated, usually from 32.9 µM), for the others: at the highest dose activity, positive = growth rescue | 330,000 compounds, 0.19% hits | AID 485353; active means well fitted rising curve with a large enough effect; inconclusive means small, poorly fitted or top-dose-only effect; inactive means no such curve, though single readings can be large or run the other way; note: 0% is about no effect; nearly all actives have a fitted effect of over 55% in size; growth read by luminescence after 48 h
# StopGo reporter = FMDV 2A StopGo reporter, luciferase signal; human cells with a luciferase reporter of 2A StopGo recoding; control for the full effect not named in the record; Potency, µM (top dose mostly 57.9 µM), without a hit: at the highest dose signal change, negative = less light; 410,000 compounds, 1.2% hits; AID 1159524; active = well fitted falling curve with a large enough effect; inconclusive = small, poorly fitted or top-dose-only effect; inactive = no such curve, though single readings can be large or run the other way; tested in HEK293T cells; note: % is set by controls: 0 for no effect and ±100 for the full control effect; nearly all actives have a fitted effect of over 45% in size; luciferase light after 4 h
# Cruzain inh noDet = inhibitors of Trypanosoma cruzi cruzain without detergent | purified cruzain, Z-FR-AMC fluorescence, no detergent | Potency, µM, without a hit: max response, negative = inhibition, actives largely listed as inhibitors | 200,000 compounds, 2.3% hits;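 note: plate controls were enzyme without inhibitor for no effect and buffer without enzyme for full effect; nearly all actives have a fitted effect of over 40% in size; top concentration of the series not given in the record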
# Target sequence (P25779 123-467 limits assumed): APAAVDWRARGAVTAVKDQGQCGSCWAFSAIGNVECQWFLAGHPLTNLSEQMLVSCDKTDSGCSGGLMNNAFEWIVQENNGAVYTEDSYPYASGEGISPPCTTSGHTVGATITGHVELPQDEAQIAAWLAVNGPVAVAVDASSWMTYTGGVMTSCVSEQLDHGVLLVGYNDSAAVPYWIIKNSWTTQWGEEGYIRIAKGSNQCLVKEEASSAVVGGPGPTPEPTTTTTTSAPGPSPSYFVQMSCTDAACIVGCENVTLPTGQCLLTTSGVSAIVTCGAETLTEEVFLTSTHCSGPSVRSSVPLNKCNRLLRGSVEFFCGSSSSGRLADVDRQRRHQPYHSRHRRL
#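 Detergent-free condition (0.00005% Triton X-100) in acetate buffer pH 5.5 with DTT. 1.5 nM enzyme and compound were pre-mixed 15 min, then 2 uM Z-FR-AMC substrate added; reaction progress from fluorescence change between first and third reads (60 s).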
# Cruzain inh Det = inhibitors of Trypanosoma cruzi cruzain with detergent. P25779. purified cruzain, Z-FR-AMC fluorescence, 0.01% Triton. Potency, µM, inactives show max response, negative = inhibition, most hits filed as inhibitors. 200,000 compounds, 0.43% hits;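 note: plate controls were neutral wells for no effect and buffer without enzyme for full effect; nearly all actives have a fitted effect of over 40% in size; top concentration of the series not given in the record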
#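 Compounds were screened in titration against cruzain (1.5 nM) with 0.01% Triton X-100 to counter colloidal aggregation. Activity was the AMC fluorescence increase over 60 s after adding 2 uM Z-FR-AMC at pH 5.5.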
# MARV entry inh = blocks Marburg virus binding to or entry into cells; Marburg virus pseudotyped entry inhibition, cell reporter; control for the full effect not named in the record; about a third of the inactives were read at about 46 µM; Potency, µM (series often up to 37.8 µM), inactives show at the highest dose activity change, negative = inhibition, hits mostly inhibitors; 300,000 compounds, 1.8% hits; AID 540276; active = well fitted inhibition curve with a large enough effect; inconclusive = small, poorly fitted or top-dose-only effect, or effect the other way; inactive = flat fitted curve, though single readings scatter; tested in HEK293 cells; about a fifth of its hits are not listed in these tables; note: % is set by controls: 0 for no effect and ±100 for the full control effect; luciferase read-out
# Lassa entry inh = blocks Lassa virus binding to or entry into cells. Lassa virus pseudotype entry inhibition, cell reporter; control for the full effect not named in the record. 300,000 compounds, 1.2% hits. Potency, µM (series often up to 37.9 µM), without a hit: top-dose activity change, negative = inhibition, hits mostly inhibitors; active means well fitted inhibition curve with a large enough effect; inconclusive means small, poorly fitted or top-dose-only effect, or effect the other way; inactive means flat fitted curve, though single readings scatter; tested in HEK293 cells; note: % is set by controls: 0 for no effect and ±100 for the full control effect; nearly all actives have a fitted effect of over 50% in size; luciferase read-out
# RE007 growth inh = less growth of the S. pombe RE007 Vpr strain; 360,000 compounds, 0.21% hits; AID 651644; S. pombe RE007 Vpr strain, BacTiter-Glo ATP luminescence, 24 h; control for the full effect not named in the record; Potency, µM (highest dose often 92.2 µM), inactives show at the top dose activity change, negative = less growth; active = well fitted falling curve with a large enough effect; inconclusive = small, poorly fitted or top-dose-only effect; inactive = no such curve, though single readings can be large or run the other way;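 note: % is set by controls: 0 for no effect and ±100 for the full control effect; nearly all actives have a fitted effect of over 50% in size; the assay follows cell death caused by Vpr and the record does not say whether a fall means rescue or toxicity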
#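 Fission yeast strain RE007, carrying one chromosomally integrated HIV-1 vpr copy, was seeded at OD 0.01 in PMG+AL medium with 23 nL pinned compound. After 24 h at 30 °C and 99% humidity, viability was read by BacTiter-Glo luminescence.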
# * hit, by the source's call; ? = inconclusive; . = no result given; & = joins results of further samples; ! = not confirmed by another sample; [ ] = remark or other dose. Unless noted, calls come from the whole dose curve; as a rule, active = well fitted curve in the direction sought with a large enough effect; inconclusive = small, poorly fitted or top-dose-only effect, or another doubt; inactive = no such curve, though single readings can be large; an effect the other way counts as inactive or inconclusive. Potency is the fitted concentration of half-maximal effect.
SMILES,NS1 function inh,SARS PLP yeast,StopGo reporter,Cruzain inh noDet,Cruzain inh Det,MARV entry inh,Lassa entry inh,RE007 growth inh
COC(=O)[C@@]1(Cc2ccc(OC)cc2)[C@H]2c3cc(C(=O)N4CCCC4)n(CCc4c[nH]c5ccc(O)cc45)c3C[C@H]2CN1C(=O)c1ccccc1,?,8%,.,?,-2.1%&-0.7%,-19%,-1%,.
CN(C)CCN(C(=O)C1=COCCO1)c1nc2ccc(Cl)cc2s1,-14%,2%,-3%,.,.,?,?,13%
COc1ccccc1NC(=O)Nc1ccc(F)c(F)c1,-4%,-1%,9%,.,.,-20%[46.1 µM],-24%[46.1 µM],-19%
Cc1ccc(CS(=O)(=O)c2cn(CC(=O)Nc3ccon3)c3ccccc23)cc1,.,-2%,-10%,.,.,-5%[46.1 µM],-2%,30%
Cc1ccc(-n2ccnc(SCC(=O)NC3CCCCC3)c2=O)cc1F,.,1%,36%[activator],.,.,-18%[46.1 µM],-1%,20%
CCOc1ccc(-c2nc(CNC(=O)Nc3ccccc3)c(C)o2)cc1,.,.,0%,-5%,-0.7%,.,2%[46.1 µM],.
Cc1cc(C)cc(N(CC(=O)Nc2cc(C)ccc2C)S(=O)(=O)c2c(C)[nH]c(=O)[nH]c2=O)c1,-4%,-1%,-4%,.,.,.,.,3%
CCN(C(=O)Cn1cnc2sc(C)c(S(=O)(=O)N3CCN(c4ncccn4)CC3)c2c1=O)c1ccccc1F,.,.,-20%,?,-4.4%,?,0%[46.1 µM],.
CCN(CC)S(=O)(=O)c1ccc(NC(=O)Nc2cccc(C(F)(F)F)c2)cc1,-8%,-5%,?,5%,-9.9%,?,?,8%
N#Cc1ccc(CSc2nnc(NC(=O)c3ccc4ncsc4c3)s2)cc1,3%,0%,5%,.,.,?,-26%,14%
CC(C)=CC(=O)Nc1nnc(-c2ccccc2C)s1,-2%,0%,56%[activator],.,.,?,1%,4%
O=C(Nc1ccccc1C(=O)O)c1cccc(NC(=O)c2ccccc2Br)c1,14%,1%,17%,.,.,2%[46.1 µM],-2%[46.1 µM],13%
CC1CCN(CCNC(=S)Nc2ccc(Cl)cc2)CC1,1%,0%,38%[activator],.,.,?,5%,-8%
COCC(=O)NC1CCN(C(=O)NCc2ccccc2)CC1,9%,11%,11%,-6%,-0.4%,9%,5%,7%
CSc1ncc(Cl)c(C(=O)Nc2c(C)cccc2C)n1,2%,-1%,-25%,.,.,.,.,-7%
CCCc1ncc(C(O)c2ccc(OC)cc2)n1C (configuration not stated),9%,8%,.,0%,4.9%,7%,-2%,0%
O=C(CN1CCCCC1)NNc1nc(-c2ccccc2)c2cc(Cl)ccc2n1,-2%,0%,-23%,.,.,?,-7%,1%
CCOC(=O)c1cc(-c2ccc(C#N)cc2)nc2c1c(C)nn2CCC#N,0%,3%,0%,-1%,-8.8%,4%,-1%,11%
N#Cc1cnc2cc(-c3ccccc3)nn2c1N,3%,1%,33%[activator],.,.,?,7%,4%
CCOC(=O)c1nc2c(ccc3ccccc32)cc1C,-11%,0%,22%,.,.,-16%[14.2 µM],27%,-17%
CCc1cc2c(=O)n(Cc3ccco3)c(SCC(=O)NC3CCS(=O)(=O)C3)nc2s1 (configuration not stated),.,-3%,10%,.,.,3%[46.1 µM],5%[46.1 µM],-5%
COc1ccc(CCCC(=O)Nc2ccc(F)cc2)cc1,-23%,-17%,-12%,1%,-4.8%,12%,-8%,44%
O=C(Nc1ccc2nc(C3CC3)n(Cc3ccccc3)c(=O)c2c1)C1CC1,2%,-1%,52%[activator],.,.,.,.,9%
Cc1ccc(OCC(=O)Nc2cc(C(=O)O)cc(C(=O)O)c2)cc1C,.,1%,-6%,.,.,-12%[14.2 µM],1%,-13%
Cc1ccc(CNC(=O)c2ccc(NC(=O)c3nsc4ccccc34)cc2)cc1,.,.,-2%,-11%,-0.3%,.,?,.
SMILES,NS1 function inh,SARS PLP yeast,StopGo reporter,Cruzain inh noDet,Cruzain inh Det,MARV entry inh,Lassa entry inh,RE007 growth inh
NC(=O)CNC(=O)c1cccc(Cl)c1,2%,0%,12%,.,.,-28%[46.1 µM],4%[46.1 µM],-14%
CCC(=O)N1CCc2cc(S(=O)(=O)NCCC(=O)Nc3ccccc3C)ccc21,-5%,-3%,24%,-7%,3.9%,10%,?,5%
Cc1ccc(S(=O)(=O)N(C)C)cc1NC(=S)NNC(=O)C(N)=O,.,-1%,23%,.,.,24%[46.1 µM],6%,-26%
COc1ccc(CN2C(=O)CC(=O)NC2=O)cc1,3.5µM*,0%,-22%,6%,1.1%,6%,-29%,-13%
COc1cc2c(cc1OC)CN(CC(=O)Nc1ccc(F)cc1)CC2,4%,7%,-10%,.,.,-1%,-6%,-1%
Nc1ccncc1,1%&0%,20%,-18%,3.5µM*!,3.2µM*!,-13%&-13%&11%&-13%&-13%&5%&-13%&-13%&-13%&-13%&-13%&-13%&-13%&-13%,?,-12%[18.4 µM]
CCn1ccnc1CN1CCc2c([nH]c3ccccc23)C1CC(C)C (configuration not stated),0%,-1%,-14%,.,.,.,.,-1%
CCOc1ccc(S(=O)(=O)N(CC)CC(=O)NCc2cccnc2)cc1C,-9%,7%,-15%,.,.,11%[46.1 µM],?,-2%
O=C(NCCc1ccccc1)C1CCN(S(=O)(=O)c2cccnc2)CC1,-25%,-4%,-15%,-7%,-0.4%,.,.,12%
COCC1CCCN(Cc2cn(-c3ccccc3F)nc2-c2cc(C)sc2C)C1 (configuration not stated),-4%,0%,-12%,.,.,.,.,-8%
COc1ccccc1C(=O)NC(CCSC)C(=O)NNC(=O)c1ccccc1C (configuration not stated),.,13%,-8%,.,.,4%,-1%,12%
O=C(N/N=C/c1ccc(OC(=O)c2ccccc2Cl)cc1)c1ccc(O)cc1,1%,0%,-29%,.,.,25%,-2%,-1%
Cc1c(C(=O)N2CCCC2)oc2c1-c1[nH]ncc1CC2,5%,-4%,-4%,7%,2.0%,?,-39%,-3%
CCC(=O)c1c[nH]c(C(=O)NCc2ccco2)c1,-8%,2%,9%,-6%,1.2%,-2%[46.1 µM],-2%,-2%
O=C(CCCCN1CCCCC1)c1ccccc1,.,.,15%,.,.,15%[46.1 µM],9%[46.1 µM],1%
COc1ccccc1NC(=O)C(O)C(O)C(=O)Nc1ccccc1OC (configuration not stated),3%,0%,-8%,-8%,7.7%,6%,3%,0%
Cc1cc(NC(=O)Cn2nc(C(F)(F)F)c3c2CCCC3)no1,-35%,-3%,-3%,?,3.2%,?,-22%,-2%
O=C(CSc1ccc(-c2ccc(F)cc2)nn1)N1CCCCC1,-7%,-3%,11%,5%,2.2%,?,?,-2%
COc1ccc(C2C=C(c3ccccc3)Nc3nc(NC(=O)/C=C/c4ccc(Cl)cc4)nn32)cc1 (configuration not stated),.,.,-20%,6%,-3.5%,-6%[46.1 µM],1%[46.1 µM],.
CCc1nn2c(NCCOC)cc(C)nc2c1-c1ccc(F)cc1,.,-12%,-16%,.,.,-3%[46.1 µM],.,-23%
COc1ccccc1OCCNC(=O)CNC(=O)c1ccc(Cl)c(Cl)c1,.,-1%,-2%,.,.,26%,-19%,-7%
S=C(c1ccc(-c2cccc(Cl)c2)o1)N1CCCCC1,.,2%,55%[activator],.,.,-26%[46.1 µM],?,-11%
Cc1cccc(-n2nnc(C(=O)NCc3ccc4c(c3)OCO4)c2N)c1,-21%,-5%,-16%,-2%,-1.3%,-27%,-8%,-11%
COc1cccc(CN2CCN(Cc3ccc4cccc(F)c4n3)CC2CCO)c1 (configuration not stated),10%,.,-28%,.,.,?,9%[46.1 µM],-6%
c1ccc(-c2noc(-c3ccc4ccccc4c3)n2)cc1,-8%,7%,-8%,-5%,-5.8%,?,?,-6%

# A different layout for five compounds above.
SMILES	NS1 function inh	SARS PLP yeast	StopGo reporter	Cruzain inh noDet	Cruzain inh Det	MARV entry inh	Lassa entry inh	RE007 growth inh
Cc1ccc(S(=O)(=O)N(C)C)cc1NC(=S)NNC(=O)C(N)=O	.	-1%	23%	.	.	24%[46.1 µM]	6%	-26%
COc1ccc(CN2C(=O)CC(=O)NC2=O)cc1	3.5µM*	0%	-22%	6%	1.1%	6%	-29%	-13%
COc1cc2c(cc1OC)CN(CC(=O)Nc1ccc(F)cc1)CC2	4%	7%	-10%	.	.	-1%	-6%	-1%
Nc1ccncc1	1%&0%	20%	-18%	3.5µM*!	3.2µM*!	-13%&-13%&11%&-13%&-13%&5%&-13%&-13%&-13%&-13%&-13%&-13%&-13%&-13%	?	-12%[18.4 µM]
CCn1ccnc1CN1CCc2c([nH]c3ccccc23)C1CC(C)C (configuration not stated)	0%	-1%	-14%	.	.	.	.	-1%

# Later entries.
SMILES,NS1 function inh,SARS PLP yeast,StopGo reporter,Cruzain inh noDet,Cruzain inh Det,MARV entry inh,Lassa entry inh,RE007 growth inh
CC1CCCN(C(=O)c2cc3c(=O)n(C)c4ccccc4c3s2)C1 (configuration not stated),.,.,1%,16%,-1.2%,18%[46.1 µM],8%[46.1 µM],.
COc1cc(C(=O)NCc2nnc(SCC(=O)Nc3cccc(C(F)(F)F)c3)o2)cc(OC)c1OC,10%,3%,-8%,.,.,1%[46.1 µM],-10%[46.1 µM],11%
O=C(CCNS(=O)(=O)c1cccs1)NCc1ccco1,11%,1%,-12%,-6%,1.0%,-10%,16%,-8%
O=C(NCc1ccccn1)C(=O)Nc1cc2c3c(c1)CC(=O)N3CCC2,.,1%,4%,.,.,4%,-1%,-8%
Nc1c(N(Cc2ccco2)C(=O)c2ccccc2F)c(=O)[nH]c(=O)n1Cc1ccccc1,.,-1%,?,.,.,21%,-6%,7%
Cc1ccccc1NC(=O)C(=O)NCCCN1CCOCC1,.,1%,-20%,.,.,-11%[46.1 µM],6%[46.1 µM],7%
CCC/C=N/NC(=O)c1cc(Br)ccc1O,-13%,14%,-8%,-3%,-4.8%,4%,13%,.
O=C(O)C(O)(c1ccccc1)C(O)c1ccccc1 (configuration not stated),.,.,-12%,.,.,?,10%,-10%
Cc1cc2ccccc2c(=O)n1CC(=O)NCC(=O)N1CCN(c2ccccc2F)CC1,2%,22%,?,2%,-2.3%,-18%,10%,6%
